StopGo FLuc – lowers the firefly signal of an FMDV 2A StopGo reporter | Potency, µM (series often up to 57.5 µM), inactives show at the highest dose signal change, negative = less light | 120,000 compounds, 0.23% hits | HEK cells with a luciferase reporter of 2A StopGo recoding; active = well fitted falling curve with a large enough effect; inconclusive = small, poorly fitted or top-dose-only effect; inactive = no such curve, though single readings can be large or run the other way; further: nearly all actives have a fitted effect of over 60% in size; overnight with compound
2A Renilla – lowers the Renilla signal of an FMDV 2A StopGo reporter. Potency, µM (series often up to 57.5 µM), without a hit: at the top dose signal change, negative = less light. HEK cells with a luciferase reporter of 2A StopGo recoding. 120,000 compounds, 0.32% hits. AID 1745857; active means well fitted falling curve with a large enough effect; inconclusive means small, poorly fitted or top-dose-only effect; inactive means no such curve, though single readings can be large or run the other way; further: nearly all actives have a fitted effect of over 55% in size; overnight with compound
Numbers without * were called inactive; ? = inconclusive; & = joins results of further samples; [ ] = remark or other dose. On the % scale 0 is the no-effect control and ±100 the full control effect; potency means the concentration at half of the fitted maximal effect. A portion of the library (hit frequency here may not be typical).

SMILES	StopGo FLuc	2A Renilla
Cc1cc2c(c(=O)n1Cc1ccc3c(c1)OCO3)C(c1ccccc1Cl)C(C#N)=C(N)O2 (stereo unspecified)	-3.5%	5.4%
Cc1cccc(N2CCN(C(=O)c3ccc4nc(N5CCC(C)CC5)sc4c3)CC2)c1C	-25.0%	-4.7%
CCc1cccc(NC(=O)CSC2=Nc3ccccc3N=C(c3ccc(F)cc3)C2)c1	56.2%[activator]	3.3%
COc1ccc(OC)c(S(=O)(=O)NCC(c2ccc(N(C)C)cc2)N2CCOCC2)c1 (stereo unspecified)	28.4%	262.8%[activator]
COC(C)(C)C#CC(=O)c1cccc2ccccc12	?	?
COc1ccccc1N1CCN(CC(=O)Nc2ccnn2Cc2cccc(Cl)c2)CC1	-4.5%	0.0%
Cc1c(NC(=O)C(C)(C)C)cccc1-c1nc2ccccc2s1	64.4%[activator]	-6.0%
CCN(CC)S(=O)(=O)c1ccc(N2CCCCC2)c(NC(=O)CC(C)C)c1	31.2%	75.3%[activator]
COc1ccc(-c2cc(C(=O)O)c3cc(C)cc(C)c3n2)c(OC)c1	0.0%	42.3%[activator]
Cc1cc(N2CCN(S(=O)(=O)c3ccc(Cl)c(Cl)c3)CC2)nc(C(C)C)n1	?	?
CO/C=C(/C(=O)OC)c1ccccc1Oc1cc(Oc2ccccc2C#N)ncn1	?	17.8µM*
COc1nc2ccccc2nc1N1CCC(C(=O)Nc2ccc(Cl)cc2C)CC1	-4.1%	-2.2%
Cc1ccccc1-c1nc(CS(=O)(=O)CC(=O)NCCc2ccccc2)c(C)o1	-5.0%&6.9%	10.6%&12.9%
N#Cc1ccc(NC(=O)CCSc2ccc(Cl)cc2)cc1	2.7%	9.3%
Nc1ncc(-c2ccccc2)c(-c2ccc(OCc3ccc(F)cc3)cc2O)n1	6.6%	-0.5%
CC(C)c1ccc(CNc2nc(-c3ccco3)nn2C(=O)c2ccc([N+](=O)[O-])cc2)cc1	0.0%	3.5%
Cc1ccc(C(=O)/C=C/c2cc(C)c(O)c(C)c2)o1	98.9%[activator]	-7.1%
CC(OC(=O)Cc1c[nH]c2ccccc12)C(=O)NC(N)=O (stereo unspecified)	6.0%	-6.7%
COC(=O)c1ccc(NC(=O)c2cc(S(=O)(=O)N3CCc4ccccc43)cn2C)cc1	-10.3%	-6.4%
Cc1sc(C2C(C#N)=C(N)N(c3cccc(Cl)c3)C3=C2C(=O)CCC3)cc1CN1CCOCC1 (stereo unspecified)	18.6%	2.5%

Reformatted with each value named: 3 of the compounds above.
> Cc1ccccc1-c1nc(CS(=O)(=O)CC(=O)NCCc2ccccc2)c(C)o1
  StopGo FLuc: -5.0%&6.9%	2A Renilla: 10.6%&12.9%
> N#Cc1ccc(NC(=O)CCSc2ccc(Cl)cc2)cc1
  StopGo FLuc: 2.7%	2A Renilla: 9.3%
> Nc1ncc(-c2ccccc2)c(-c2ccc(OCc3ccc(F)cc3)cc2O)n1
  StopGo FLuc: 6.6%	2A Renilla: -0.5%

The main list resumes, repeating the five entries before the break.
SMILES	StopGo FLuc	2A Renilla
CC(C)c1ccc(CNc2nc(-c3ccco3)nn2C(=O)c2ccc([N+](=O)[O-])cc2)cc1	0.0%	3.5%
Cc1ccc(C(=O)/C=C/c2cc(C)c(O)c(C)c2)o1	98.9%[activator]	-7.1%
CC(OC(=O)Cc1c[nH]c2ccccc12)C(=O)NC(N)=O (stereo unspecified)	6.0%	-6.7%
COC(=O)c1ccc(NC(=O)c2cc(S(=O)(=O)N3CCc4ccccc43)cn2C)cc1	-10.3%	-6.4%
Cc1sc(C2C(C#N)=C(N)N(c3cccc(Cl)c3)C3=C2C(=O)CCC3)cc1CN1CCOCC1 (stereo unspecified)	18.6%	2.5%
Cc1cc(C)c2oc(C(=O)N(Cc3cccs3)C3CCS(=O)(=O)C3)cc(=O)c2c1 (stereo unspecified)	-4.4%	10.1%
Cc1ccc(Cn2c(SCCC(=O)O)nc3c2c(=O)[nH]c(=O)n3C)cc1	4.8%	0.7%
Cc1ccc(-n2nc(C)c3c2NC(=O)CSC3c2ccsc2)cc1Cl (stereo unspecified)	23.2%	-8.3%
O=C(Nc1cccc2cccnc12)c1cccc(S(=O)(=O)N2CCN(c3ccc(F)cc3)CC2)c1	-6.7%	-7.2%
CC(=O)Nc1ccc(NC(=O)Cn2cc3c(n2)CCCCC3)cc1	3.2%	-2.7%
COc1ccc2c(c1)c(=O)c(C(=O)c1ccc(C)cc1)cn2Cc1ccccc1F	-3.2%	65.3%[activator]
CCc1ccc(-n2nc(CO)c(C(=O)NC(C)c3ccc(Cl)cc3)n2)cc1 (stereo unspecified)	-0.1%	-3.5%
CCN(CC)CCNC(=O)Cn1nc(C)n2nc(-c3ccccc3)cc2c1=O	0.1%	0.6%
CN(C)c1ccc(NC(=O)CCC2CCCC2)cc1	87.0%[activator]	34.3%[activator]
Cc1c(Cl)c(C(F)(F)F)nn1CC(=O)Nc1ccc(F)cc1F	-1.4%	3.6%
Cc1ccc(NC(NC(=O)c2ccc(C(C)(C)C)cc2)C(Cl)(Cl)Cl)cc1C (stereo unspecified)	?	?
Fc1ccc(-c2nc(Nc3cccc(Cl)c3)nc3c2COc2ccccc2-3)cc1	-4.7%	-2.6%
COC(=O)c1ccc(Oc2ccc(C(=O)OC)cc2)cc1	0.0%	19.3%
[O-][N+]1=C2CCC/C(=N\O)C2=NC12CCCCC2	3.1%	-1.1%
O=C(COc1ccc(Cl)cc1Br)Nc1ncn[nH]1	0.0%	-1.6%
Clc1ccc(-n2nnnc2C2(Nc3ccccc3)CCCCC2)cc1	12.1%	175.9%[activator]
CCN1CCN(c2oc(-c3ccc([N+](=O)[O-])cc3)nc2C#N)CC1	-6.3%	0.8%
COCCN1C(=O)C(=O)/C(=C(/O)c2ccc(OCC(C)C)c(C)c2)C1c1cccnc1 (stereo unspecified)	15.7%	10.2%
CCCCn1c(=O)n(CC(=O)NCc2ccc(Cl)cc2)c(=O)c2c1ncn2CC(C)C	-0.5%	4.3%
CCn1c(=O)c2cc(C(=O)NCc3cc(OC)ccc3OC)sc2c2ccccc21	0.0%	-8.1%
CCOc1ccc(N2C(=O)CS(=O)(=O)C23C(=O)N(Cc2cccc(C)c2)c2ccccc23)cc1 (stereo unspecified)	-18.0%	-4.5%
COc1ccc(NC(=O)C2CCN(c3nc4ccccc4[nH]3)CC2)cc1OC	-30.2%	-26.0%
COc1ccc(-n2cc(C(=O)Oc3cc(C)cc(C)c3)c3ccccc3c2=O)cc1	-20.7%	-13.3%
CCc1nn(C(C)C(=O)NCc2ccccc2Cl)c(=O)c2cc3occc3n12 (stereo unspecified)	50.8%[activator]	?
COc1ccc(C(=O)Cn2cnc3c2c(=O)n(C)c(=O)n3C)cc1	-2.6%	-3.5%
CCc1c(C)nc(-n2nc(C)cc2NC(=O)COc2ccc(C(C)C)cc2)[nH]c1=O	-12.9%	-16.0%
CCc1c(C)sc(NC(=O)Cc2c(Cl)cccc2Cl)c1C#N	-9.9%	-13.9%
CC(C)(c1nnnn1-c1ccc(Cl)cc1)N1CCOCC1	12.0%	9.7%
O=C(N/N=C/c1ccccc1)C1CC1c1ccccc1 (stereo unspecified)	40.1%[activator]	36.9%[activator]
CCC(C)(C)NCc1ccco1	-1.8%	7.4%
CCn1nc(C(=O)Nc2ccccc2F)c2ccccc2c1=O	32.7%[activator]	28.4%
Cc1cc(C)cc(C(=O)NC(C)C2CCCO2)c1 (stereo unspecified)	?	0.5%
Cc1ccc(S(=O)(=O)NCCc2nnc3ccc(SCC(=O)Nc4c(C)cc(C)cc4C)nn23)cc1	-23.5%	13.7%
Cc1oc(-c2ccccc2)nc1C(=O)Nc1ccc(C(C)C)cc1	97.7%[activator]	-2.5%
CCOC(=O)Cn1c(=O)oc2cc(S(=O)(=O)NC(C)c3ccccc3)ccc21 (stereo unspecified)	0.5%	6.4%
CCC(CC)c1nnc(NC(=O)C(CC)c2ccccc2)s1 (stereo unspecified)	-1.9%	-2.7%
COc1ccc(OC)c(NC(=O)Cn2cc(S(=O)(=O)c3ccccc3)c(=O)c3cc(C)ccc32)c1	-2.4%	50.2%[activator]
CCOC(=O)/C(C#N)=C/c1ccccc1OCc1ccc(Cl)cc1	239.6%[activator]	26.7%
COc1cc(C(CC(=O)c2ccccc2)C(C#N)C#N)cc(OC)c1OC (stereo unspecified)	?	?
COc1ccc(Cl)cc1C(=O)OCCOc1ccccc1F	75.5%[activator]	-14.8%[1.06 µM]
O=C(Cn1cc(SCc2cccc(C(F)(F)F)c2)c2ccccc21)N1CCCCCC1	38.7%[activator]	-2.7%
CC1(C)S[C@@H]2[C@H](NC(=O)C(C(=O)O)c3ccccc3)C(=O)N2[C@H]1C(=O)O (stereo partly specified)	-15.0%[11.5 µM]	-6.5%
Cc1cccc(CNC(=O)CSCc2cnn(-c3ccccc3)c2-n2cccc2)c1	0.0%	?
CC1CCC(NC(=O)CSc2ncnc3c2cnn3-c2ccccc2)CC1 (stereo unspecified)	77.5%[activator]	-13.5%
O=C(NCCc1nnc2n1CCCCC2)Nc1ccccc1F	17.6%	6.9%
O=C(Nc1ccc(OC(F)F)cc1)c1n[nH]c(=O)c2ccccc12	155.5%[activator]	-4.3%
Cc1cccc(N2CCN(c3ncnc4c3nc3n4CCCCC3)CC2)c1C	-5.3%	-2.8%
CCCn1c(C)cc(C(=O)CSc2n[nH]c(C3CC3)n2)c1C	0.0%	-4.6%
CCC(=O)Nc1ccc(-c2csc(NCc3ccco3)n2)cc1	56.3%[activator]	60.1%[activator]
CCN(CC)S(=O)(=O)c1ccc(C(=O)Nc2ccccc2OC(F)F)cc1	10.7%	1.8%
(list continues)
SMILES	StopGo FLuc	2A Renilla
CC(C)(C)c1ccccc1NC(=O)C1CCCC1	92.2%[activator]	6.6%
O=C(COc1ccccc1Cl)OCC(=O)c1ccc(-c2ccccc2)cc1	0.0%	3.7%
N#Cc1c(NC(=O)c2cc3nc(-c4ccc(Br)cc4)cc(C(F)(F)F)n3n2)sc2c1CCCC2	-12.4%	-8.7%
CC(C(=O)O)c1ccc2c(c1)Cc1cccnc1O2 (stereo unspecified)	-10.3%	-6.0%
Cc1cc(C)c(NC(=O)c2cc3c(=O)n4ccccc4nc3n2C)c(C)c1	12.3%	-4.1%
O=C(O)c1cc(F)c(F)cc1Cl	5.0%	7.4%
COc1cccc(NC(=O)Cn2cc(OC)c(=O)cc2CSc2ccc(F)cc2)c1	3.6%	-5.8%
COC(=O)c1ccc(NC(=O)NCc2cccn2Cc2ccc(F)cc2)cc1	-1.9%	8.9%
CCOc1cc(C2C3=C(CC(C)(C)CC3=O)OC3=C2C(=O)CC(C)(C)C3)ccc1OC(C)=O	3.2%	14.5%
S=C(NCCc1ccccc1)Nc1ccccc1Cc1ccccc1	27.2%	102.1%[activator]
Cc1ccc(CN(C(=O)c2ccc(F)cc2)c2ccccn2)o1	-3.8%	17.2%
COc1ccc(-c2c(C)oc3cc(OCC#N)ccc3c2=O)cc1OC	-5.9%	-9.8%
CCOC(=O)c1oc2cc(O)c(CC)cc2c(=O)c1-c1nc2ccccc2s1	18.5%	-4.0%
CCn1ccc2c(OCC(=O)NCc3ccc(F)cc3)cccc2c1=O	10.1%	16.5%
CN(C)c1ccc(C(=O)N/N=C/c2ccc(Br)s2)cc1	151.0%[activator]	101.8%[activator]
O=C(NCCC(c1ccccc1)c1ccccc1)NNc1cnccn1	5.6%	-11.7%
CCOCCCNC(=O)Cn1cc2c(n1)-c1c(oc(C(=O)N3CCCC3)c1C)CC2	-0.4%	2.6%
CCCC(C)(C)NC(=O)CCc1ccc(OC)c(OC)c1	-1.4%	0.4%
COc1ccc(-c2nnc(C3CCN(C(=O)c4ccccc4F)CC3)o2)cc1	15.6%	37.1%[activator]
O=S(=O)(NCCCO)c1ccc(Cl)cc1	7.0%	0.0%

Individual results from the results shown.
Cc1ccc(CN(C(=O)c2ccc(F)cc2)c2ccccn2)o1 | StopGo FLuc = -3.8%
CCN1CCN(c2oc(-c3ccc([N+](=O)[O-])cc3)nc2C#N)CC1 | StopGo FLuc = -6.3%

Continued:
SMILES	StopGo FLuc	2A Renilla
Cc1c(C)c2ccc(OCC(=O)Nc3ccc4c(c3)OCCO4)cc2oc1=O	6.4%	-0.5%
Cn1c(=O)c2nc(SCCC(=O)O)n(C)c2n(C)c1=O	-1.0%	-8.0%
Cc1ccc(C(=O)c2oc3ccccc3c2NC(=O)COc2ccc(C(C)C)cc2)cc1	2.0%	-17.4%
CCOC(=O)C1=C(C)NC(=O)NC1c1ccc(C(=O)OC)cc1 (stereo unspecified)	48.5%[activator]	31.9%[activator]
CCOC(=O)CC(NC(=O)c1cc2c(=O)n3cccc(C)c3nc2s1)c1ccc(OCC)c(OC)c1 (stereo unspecified)	-10.0%	1.4%
CS(=O)(=O)/C(=C\c1cccc(Cl)c1)C(=O)c1ccccc1	-2.2%	3.4%
COc1ccc(OC)c(CN2CCc3nc(N4CCN(c5ccccc5F)CC4)ncc3C2)c1	10.0%	4.3%
O=C(NCCC12CC3CC(CC(C3)C1)C2)C1CCCCC1	11.8%	4.8%
O=C(NCc1cccs1)c1ccccn1	0.0%	-0.3%[1.06 µM]
COc1ccccc1NS(=O)(=O)c1cc(NC(=O)c2n[nH]c3ccccc23)ccc1C	?	-73.9%
CNC(=O)c1ccc(-c2nc(CN3CCN(C(=O)Nc4ccc(C(=O)OC)cc4)CC3)c(C)o2)cc1	8.0%	4.9%
CC(C)(CNC(=O)C1CCCCC1)CNC(=O)C1CCCCC1	-8.9%	-5.4%
O=C(/C=C/Nc1ccc(OCc2ccccc2)cc1)c1ccc(Br)cc1	36.6%[activator]	10.9%

At a glance, part of the list above:
SMILES	StopGo FLuc	2A Renilla
O=C(NCc1cccs1)c1ccccn1	0.0%	-0.3%[1.06 µM]
COc1ccccc1NS(=O)(=O)c1cc(NC(=O)c2n[nH]c3ccccc23)ccc1C	?	-73.9%
